Compound activity: PubChem BioAssay, ICCB-Longwood Screening Facility, Harvard Medical School
AID504770 – growth inhibition of E. coli YBA685, primary screen, V. cholerae RctB inhibitors. z-score (no concentration beside the values). E. coli YBA685 rctB-dependent plasmid, OD600 growth, 3 h; hits give low values. 130,000 compounds, 0.27% hits;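 active = z-score under -2 on both plates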;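 also: wells of about 30 µL received 100 nL stock; score is relative to mean and SD of the test wells; the first replicate is given; strong numbers were not always called active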
Ba CapD inh – Bacillus anthracis CapD inhibitors, primary screen, biochemical, fluorescence intensity; CapD gamma-glutamyltranspeptidase (Bacillus anthracis Ames Ancestor); purified CapD enzyme, fluorescence intensity read-out; hits give low values; some hits fall short of the stated cut; z-score (concentration not given with the values); 140,000 compounds, 0.23% hits; AID 492967, 2010;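 active = z-score under -4 in either of two replicates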;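 also: stock transfer was 100 nL into about 40 µL; score is relative to mean and spread of the plate; one replicate is shown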
* hit, by the source's call; · = no result given. Some of the compounds tested (hit frequency here may not be typical).

Each structure is followed by: AID504770, Ba CapD inh
> C=CCN1C(=O)C2Cc3c([nH]c4ccccc34)C(c3ccc(O)cc3)N2C1=S (centres undefined)
 : -0.1, 0.22
> O=C1CC(NC(=O)c2ccc(Cl)cc2)C(=O)N1 (centres undefined)
 : -0.1, -0.81
> CCOC(=O)c1c(C)c(C(=O)Nc2cccc(C)c2)c(C)n1C
 : 0.65, 0.17
> Cc1cc2ccccn2c1C(=O)c1ccccc1
 : -0.3, 84
> CC1=NOC(O)(C(F)(F)F)C1 (centres undefined)
 : -1.4, 1.1
> CCn1c(=O)c(C(=O)CC#N)c(N)n(Cc2ccccc2)c1=O
 : -0.4, ·
> CC(=O)Nc1ccc(-c2nc3ccc(NC(C)=O)cc3s2)cc1
 : -0.6, 66
> CCC(=O)NC1(C(F)(F)F)C(=O)NC(C)=C1C(=O)OC (centres undefined)
 : 0.85, -0.91
> CCCCn1c(N)c(N(C)C(=O)CSc2nnc(C)n2-c2ccccc2OC)c(=O)[nH]c1=O
 : -0.8, ·
> CCOC(=O)C1CCN(C(=O)c2cccc(Cl)c2)CC1
 : 2.2, ·
> O=C(c1ccc(Cl)c(Cl)c1)N1CCN(c2cccc3scc(-c4ccccc4)c23)CC1
 : ·, 0.28
> O=C(OCCN1C(=O)c2cccc3c(N4CCOCC4)ccc(c23)C1=O)c1ccc(Cl)cc1Cl
 : ·, 0.81
> CN1CCc2nc(SCc3cccc(Cl)c3)c(C#N)cc2C1
 : -1, -0.68
> Cc1ccccc1-n1c(O)c(/C=N/c2nccs2)c(=O)[nH]c1=O
 : -0.3, 19
> CN1C(=O)CSc2ccc(NC(=O)N3CCOCC3)cc21
 : -0.15, -0.49
> CCN(CC)C(=O)CSC1=Nc2ccccc2C2=NC(Cc3c[nH]c4ccccc34)C(=O)N12 (centres undefined)
 : -0.65, -0.64
> O=C(COC(=O)C1CC1)Nc1cc(Cl)cc(Cl)c1
 : -0.4, -0.12
> CCn1c2ccccc2c2nn(C)c(=N)nc21
 : -0.7, -1.9
> CSc1cccc(NC(=O)Cn2nc(C)c(Oc3ccccc3)c2C)c1
 : 0.65, 0.22
> CCOCCOC(=O)C1=C(C)NC2=C(C(=O)CC(c3ccc(OC)cc3)C2)C1c1cc2c(cc1Br)OCO2 (centres undefined)
 : ·, 16
> O=C(CSc1nnc(Cc2cc(=O)[nH]c(=O)[nH]2)n1-c1ccccc1)NC1CCCC1
 : -0.65, 0.34
> Cc1ccc(C(=O)NCCN(C)C)cc1NC1=NC2CS(=O)(=O)CC2S1 (centres undefined)
 : -0.5, -0.12
> C1COC2(CCC3(CC2)OCCO3)O1
 : ·, 0.28
> O=c1nc2scc(-c3ccccc3)n2c2ccccc12
 : 0.55, 0.42
> CCCCC1(CC(=O)N2CCOCC2)C(=O)N(c2ccccc2)N(c2ccccc2)C1=O
 : -0.9, 0.29
> CCOC(=O)C1=C(C)N=c2s/c(=C\c3ccc(O)c(OCC)c3)c(=O)n2C1c1ccc2c(c1)OCO2 (centres undefined)
 : ·, -0.26
> Cn1nc(NC(=O)Cn2ccc(C(F)(F)F)n2)c2ccccc21
 : 0.25, -0.9
> COc1ccc(OCC(=O)N2CCN(C(=O)COc3ccccc3)CC2)cc1
 : -0.75, 2.5
> Cc1cccc(C2Nc3ccccc3C(=O)N2CCc2ccccc2)n1 (centres undefined)
 : 0.6, 43
> COc1ccc(CNc2ccc(C(=O)N3CCN(c4ccccc4)CC3)cc2S(=O)(=O)Nc2cccc(OC)c2)cc1
 : ·, 1.6

Among those listed so far, 3 have fluorine:
Each structure is followed by: AID504770, Ba CapD inh
> CC1=NOC(O)(C(F)(F)F)C1 (centres undefined)
 : -1.4, 1.1
> CCC(=O)NC1(C(F)(F)F)C(=O)NC(C)=C1C(=O)OC (centres undefined)
 : 0.85, -0.91
> Cn1nc(NC(=O)Cn2ccc(C(F)(F)F)n2)c2ccccc21
 : 0.25, -0.9

New compounds follow.
Each structure is followed by: AID504770, Ba CapD inh
> COc1cccc(/C=N/c2oc(-c3ccccc3)c(-c3ccccc3)c2C#N)c1
 : ·, 0.24
> O=C(O/N=C1\CCS(=O)(=O)c2sccc21)c1cccc(C(F)(F)F)c1
 : ·, 0.075
> Cc1ccc(Cl)cc1N1CCN(CCNC(=O)Cn2nc(C)n3c(cc4sccc43)c2=O)CC1
 : 0.1, -0.52
> O=[N+]([O-])c1ccc(N2CCN(c3ncnc4c3cnn4-c3ccc(Cl)cc3)CC2)cc1
 : ·, -0.23
> CSc1scc2c1-c1nn(C(=O)c3ccc(Cl)cc3)cc1CC2
 : 0.65, 2.4
> CN1c2ccccc2Sc2ccccc21
 : 3, 0.11
> O=c1c(=NNc2ccc(S(=O)(=O)N3CCOCC3)cc2)c(=O)c2ccccc12
 : -0.45, ·
> CCc1cccc(NC(=O)C2COc3ccccc3O2)c1 (centres undefined)
 : -0.3, ·
> O=C(O)C1CCN(Cc2cc3cccc4c3n(c2=O)CCC4)CC1
 : ·, 0.79
> CC(C)OC(=O)C(C)n1cnc2sc(-c3ccccc3)cc2c1=O (centres undefined)
 : -0.8, 8.2
> CCN1CCCC1Cn1c(=S)[nH]c2ccccc2c1=O (centres undefined)
 : -0.95, 0.8
> COc1ccc(CNCCCn2ccnc2)c(OC)c1
 : -0.6, ·
> CCOC(=O)C1=C(C)N=c2s/c(=C/c3ccccc3OC(C)=O)c(=O)n2C1c1ccc(OC(C)=O)c(OC)c1 (centres undefined)
 : ·, 0.12
> CCCOc1ccc(OCCSc2nc(N)cc(=O)[nH]2)cc1
 : -0.2, -0.14
> Fc1ccc(NC2=NCCN2)cc1
 : -2.2, -1.1
> CCNc1cc(Nc2ccc(-c3ccccc3)cc2)c([N+](=O)[O-])c2nonc12
 : ·, 0.16
> O=C(O)CCCn1ccc2cc(S(=O)(=O)N3CCCC3)ccc21
 : -0.95, 1.4
> CCCCn1c(SCC(=O)NC)nc2ccccc2c1=O
 : -0.85, ·
> COc1ccc(C2=C(Cl)C=C(c3ccccc3C)c3ccccc3O2)cc1OC
 : ·, 1.2
> FC(F)(F)c1cccc(N2CCN(Cc3ccoc3)CC2)c1
 : -0.15, 0.39
> CC(c1ccccc1)n1cncc1C(=O)N1CCCC1=O (centres undefined)
 : -0.05, ·
> COc1cc(C(=O)NNC(=O)c2ccoc2)cc(OC)c1OC
 : ·, 0.34
> CCOC(=O)C1=C(C)NC(=S)NC1c1ccc(-c2ccccc2Cl)o1 (centres undefined)
 : 0.2, -0.04
> NC(=O)C[n+]1cccc(/C=N/O)c1
 : 0.6, 0.11
> CCNC(=O)c1ccc(-n2c(C)ccc2C)cc1
 : -0.55, ·
> Cc1ccc(SCCC(=O)c2cccs2)cc1
 : -0.6, -0.005
> O=C(OCc1ccccc1)C1=NNC2C(=O)N(Cc3ccccc3)C(=O)C12 (centres undefined)
 : -0.65, -0.005
> CC(C)Cn1c(=O)oc2ccccc21
 : -0.1, -1.1
> CN(C1CCCC1)C1CCN(C(=O)CNC(=O)/C=C/c2ccccc2F)CC1
 : 0.15, -0.28
> O=C(O)c1c2c(nc3ccc(Br)cc13)CCCC2
 : -0.35, -0.2
> Cc1ccc(C=Nc2cccc(Cl)c2)cc1
 : -0.1, -0.28
> CN(Cc1ccccc1)C(=O)c1ccc2c(c1)NC(=O)C(N1CCOCC1)S2 (centres undefined)
 : 0.1, 0.47
> COc1ccc(CNn2cnnc2)c(O)c1
 : -0.55, ·
> CC1CCCN(S(=O)(=O)c2ccc(Cl)cc2)C1 (centres undefined)
 : -0.7, -0.28
> CCOC(=O)c1sc(S(N)(=O)=O)c(C(=O)OCC)c1C
 : 1.1, ·
> CC(=O)Nc1c(O)[nH]c(=S)[nH]c1=O
 : -1.2, ·
> Cn1ncc(C(=O)O/N=C/c2c(F)cccc2Cl)c1-n1cccc1
 : ·, -0.27
> COCCNC(=S)Nc1ccn(C)n1
 : -0.55, 0.41
> COc1ccccc1C1CCN(Cc2cccc3ccccc23)CC1
 : -1, -0.17
> CCCCNC(=O)N(O)C1N(CCN2CCOCC2)C(=S)SC1(C)C (centres undefined)
 : ·, 6
> O=C(Cn1cccc1)N1CCN(c2ccccc2)CC1
 : -0.4, -0.58
> CCC(CC)C(=O)NCCc1cc2ccc(OC)cc2[nH]c1=O
 : 2.6, 0.78
> CCSCCOC(=O)C1=C(C)NC2=C(C(=O)CC(c3ccccc3)C2)C1c1ccc(OC)cc1OC (centres undefined)
 : ·, 6.5
> O=C(COC(=O)CCc1c[nH]c(=O)[nH]1)Nc1ccccc1
 : -0.3, -0.22
> CCc1ccc2nc(N3CCCCC3)c(C#N)cc2c1
 : -0.35, ·
> COc1ccc(N/C=C2/CCCCC2=O)cc1
 : -0.55, -3
> Clc1ccccc1CC1=NCCN1
 : ·, 0.12
> CCCCN(C)C(=O)c1cn(CC(C)C)c(=O)c2cc(OC)c(OC)cc12
 : -0.25, 17
> c1ccc2c(NC3=NCCS3)cccc2c1
 : -0.75, 0.43
> CC(CCc1ccccc1)NC(=O)CCc1nc(-c2ccccc2F)no1 (centres undefined)
 : 0.55, 0.17
> CN(CC(=O)N1CCc2ccccc21)S(=O)(=O)c1cccc2cccnc12
 : 2.2, -1.3
> CCNC(=O)N(Cc1cc2cccc3c2n(c1=O)CCC3)c1ccc(OC)cc1
 : ·, 2.5
> CCc1ccc(CN(Cc2cn[nH]c2-c2ccc(OC)cc2)C(=O)Nc2ccc3c(c2)OCCO3)cc1
 : -0.65, -0.35
> COc1cc(CCNS(=O)(=O)c2cc(C(F)(F)F)cc(C(F)(F)F)c2)cc(OC)c1
 : ·, -0.46
> Cc1ccsc1CNCC1CCCO1 (centres undefined)
 : 1.8, 0.27
> O=C(Nc1sc2c(c1-c1nc3ccccc3s1)CCCC2)c1ccc(Cl)s1
 : ·, -0.12
> CCCn1c(C(O)c2ccc3c(c2)OCO3)nc2ccccc21 (centres undefined)
 : -0.3, -0.25
> CC(C)NC(=O)/C(C#N)=C/c1nn(Cc2ccccc2)cc1-c1cccnc1
 : 0.45, ·
> Cc1ccc(C)c(C(=O)C(C)OC(=O)c2cccn2C)c1 (centres undefined)
 : -0.45, ·
> CC(Oc1ccc(Cl)cc1Cl)c1nc(-c2ccc(NC(=O)c3ccco3)cc2)no1 (centres undefined)
 : ·, -0.06

2 consecutive compounds from above, quoted:
Each structure is followed by: AID504770, Ba CapD inh
> Cc1ccc(C)c(C(=O)C(C)OC(=O)c2cccn2C)c1 (centres undefined)
 : -0.45, ·
> CC(Oc1ccc(Cl)cc1Cl)c1nc(-c2ccc(NC(=O)c3ccco3)cc2)no1 (centres undefined)
 : ·, -0.06

Going on with the list.
Each structure is followed by: AID504770, Ba CapD inh
> N#Cc1c(SCC(=O)Nc2ccc(Cl)cc2)nc2c(c1-c1ccco1)CCCC2
 : ·, 3.4
> Cc1ccc2c(c1)N(CCC(=O)NCc1ccccc1)C(=O)CO2
 : -1, -0.88
> COc1ccc(-c2cn(/N=C/c3ccc(Cl)cc3Cl)c(NC(=O)Nc3ccccc3)n2)cc1
 : ·, -0.43
> NS(=O)(=O)c1ccc(CCNC(=O)CSc2nc(NCC3CCCO3)c3ccccc3n2)cc1 (centres undefined)
 : ·, 2.2
> CCC(=O)Nc1ccc(C(=O)Nc2ccc(S(=O)(=O)N3CCCCC3)cc2)cc1
 : 0.7, 0.13
> CC1CC(C)CN(c2nc(Nc3ccccc3)c3cnn(C)c3n2)C1 (centres undefined)
 : -1.1, 0.72
> CC(=O)Nc1ccccc1I
 : 0.15, 0.54
> CCOC(=O)c1ccccc1NS(=O)(=O)c1ccc2c(c1)OCCO2
 : 0.55, 0.44
> CN1OC(CC(=O)NC2CCCCCC2)N(c2ccc(Cl)cc2)C1=O (centres undefined)
 : ·, 0.07
> CN(C(=O)COC(=O)c1nccnc1N)c1ccccc1
 : -0.05, ·
> CCOc1ccccc1N/C(SCc1cccc([N+](=O)[O-])c1)=C(/C#N)C(=O)NCc1cccs1
 : ·, 0.08
> CCCNC(=O)C1CCN(c2nn3c(=O)cc(C)nc3s2)CC1
 : 0.5, -0.11
> NC(=O)C(c1ccc(Cl)cc1)c1ccc(Sc2ccc(Cl)cc2)nn1 (centres undefined)
 : ·, -0.1
> CCCCc1c(C)[nH]c2ccccc2c1=O
 : -0.3, ·
> CCOC(=O)/C(=C\N1CCc2ccccc2C1)C(C)=O
 : ·, -0.09
> O=C1c2ccccc2S(=O)(=O)N1c1ccccc1F
 : -0.45, 0.6
> NS(=O)(=O)c1ccc(CCNC(=O)c2ccc(Cn3c(=S)[nH]c4ccc(Br)cc4c3=O)cc2)cc1
 : ·, 0
> CCOC(=O)C(CCC(=O)O)(CCC(=O)O)C(=O)OCC
 : ·, 0.8
> O=S(=O)(Nc1cccc(Cl)c1)c1cnc[nH]1
 : -1.8, -0.27
> CS(=O)(=O)Nc1cccc(C(=O)OCC(=O)c2cccs2)c1
 : -0.15, ·
> CCN1C(=O)CC(c2ccccc2)Sc2ccccc21 (centres undefined)
 : -0.7, -0.27
> O=C1C2C(c3ccccc3)OC3(C(=O)c4ccccc4C3=O)C2C(=O)N1C1CCCCC1 (centres undefined)
 : 0.05, -0.065
> COc1ccc(NC(=O)C2CC(=O)N/C(=N/N=C(\C)c3ccccc3)S2)cc1 (centres undefined)
 : -0.3, ·
> CNC(=O)NC(=O)COc1ccc(Oc2ccccc2)cc1
 : -1.9, ·
> COc1ccc(-c2csc(C(=O)O)c2)cc1
 : ·, 0.02
> CC(=O)OC(COc1ccccc1C)Cn1cnc2ccccc21 (centres undefined)
 : -0.3, -0.41
> CCOC(=O)c1cc(S(=O)(=O)N2CCN(c3ccccc3F)CC2)cn1C
 : 0.35, 0.01
> O=C(OCc1cn(-c2ccccc2)nc1-c1ccccc1)c1ccco1
 : 0.3, ·
> c1ccc(CSc2ncnc3c2oc2ccccc23)cc1
 : -0.55, -0.24
> CC(=O)Oc1ccccc1C(=O)N1CCN(c2cccc(Cl)c2)CC1
 : 0.7, 0.94
> COc1ccc(N2CCN(S(=O)(=O)c3ccc(Cl)cc3Cl)CC2)cc1
 : ·, -0.025
> CCN(C(=O)c1ccc2c(=O)n3c(nc2c1)CCCCC3)c1ccccc1
 : 1.1, -1.3
